Mtb H37Rv = Mycobacterium tuberculosis H37Rv growth inhibition, cell based, confirmatory dose response (AID 1949); one-dose inhibition, % at 10 µg/mL; IC50 in µg/mL for titrated hits; most inactive calls were filed without a number and no value below 0 was filed; hit rate 1.6% among 100,000;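 active means confirmed in a dose series; inconclusive means about 50% or more but not retested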;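 further: bacteria grown 7 days with compound before Alamar blue readout; 0% = untreated bacteria and 100% = reference antibiotic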
Numbers without * were called inactive; i = inactive; ? = inconclusive. Only part of the results is shown. The share of hits here may be higher or lower than overall.

Molecule	Mtb H37Rv
CC(=O)Nc1ccc(CSc2ccccc2)cc1	17%
CC(=O)Nc1ccc(S(=O)(=O)N2CCN(Cc3ccco3)CC2)cc1	i
COc1cc(NS(=O)(=O)c2ccc(OC)c(OC)c2)cc(OC)c1	i
COc1ccc(OC)c(NC(=O)CN(C2CCCCC2)S(=O)(=O)c2c(C)cc(C)cc2C)c1	i
CCn1c(SCC(=O)Nc2ccc(OC)cc2)nnc1C(NC(=O)c1ccc(C)cc1)C(C)C (stereo not given)	1%
CN(C)CCNC(=O)c1ccc(COCC(F)(F)F)cc1	i
CC(C)(C)c1ccc(C(=O)Nc2ccc(S(=O)(=O)Nc3nccs3)cc2)cc1Br	1.2µg/mL*
CCOc1ccc(N(CC(=O)Nc2ccccc2C(N)=O)S(=O)(=O)c2ccc(SC)cc2)cc1	25%
COc1cc(OC)cc(C(=O)NCCOC23CC4CC(CC(C4)C2)C3)c1	i
Cc1cccc(NC(=O)c2ccc(COc3cccc4ccccc34)cc2)n1	?
Cc1ccc(S(=O)(=O)N(C)CC(=O)Nc2ccccc2C(F)(F)F)cc1	i
Cc1nc2cc(NC(=O)Nc3cccc4ccccc34)ccc2n1C	i
COc1cc(Cl)c(S(=O)(=O)N2CCN(Cc3ccc4c(c3)OCO4)CC2)cc1Cl	2%
Cc1sc(C(=O)Nc2ccc3ccccc3c2)cc1CC(=O)O	i
CCCN1CCC(NC(=O)Nc2ccc(C(C)=O)cc2)CC1	i
O=C(CSc1ncnc2scc(-c3ccc(Br)cc3)c12)Nc1ccc(F)cc1	i
C=CCOc1ccc(I)cc1C=O	i
Cc1ccc(S(=O)(=O)Nc2ccccc2CNC2CCCCC2)cc1	i
CCOC(=O)c1c(NC(=O)CCc2ccc(OC)cc2)sc2c1CCC(C)C2 (stereo not given)	4%
O=S(=O)(Nc1cccnc1)c1cccc(F)c1	i
Cc1nc(NC(=O)C2C3CCC(C3)C2C(=O)O)sc1-c1ccccc1 (stereo not given)	i
CCOc1ccccc1OCC(=O)Nc1cc(C)ccc1OC	i
CCCCC(=O)Nc1ccc(C(=O)NCc2cccnc2)cc1	i
Cc1cccc(-c2n[nH]c(=S)n2Cc2ccccc2)c1	1%
CCCOc1ccc(Oc2nc(NC)nc(N3CCOCC3)n2)nn1	i
CCc1ccc(N2CCN(S(=O)(=O)c3cc(C)c(OC)cc3C)CC2)cc1	i
CNc1ccccc1C(=O)OCC(=O)c1ccccc1Cl	i
COc1ccc(CCNC(=O)CN(CCc2ccccc2)S(C)(=O)=O)cc1OC	i
COC(=O)Cc1c(C)c2cc(Cl)c(OC(=O)c3ccco3)cc2oc1=O	i
COc1cccc(C2=CC(c3ccc(Cl)cc3)n3ncnc3N2)c1 (stereo not given)	i
COc1cc(Cl)c(C)cc1NC(=O)CC1Sc2ccccc2NC1=O (stereo not given)	i
CC1=C(C(=O)Nc2ccc(Cl)cc2)C(c2c(Cl)cccc2Cl)NC(=O)N1 (stereo not given)	i
CC(=O)Nc1ccc(C(=O)CSc2nnc(Cc3ccccc3)o2)cc1	i
O=C(C1CCCO1)N1CCN(C(=S)NCc2ccc(F)cc2)CC1 (stereo not given)	i
COc1ccc(S(=O)(=O)Nc2cc(Cl)ccc2C)c(Cl)c1Cl	i
CC(C)(Oc1ccc(Cl)cc1)C(=O)NCCc1ccc(S(N)(=O)=O)cc1	i

Exported field by field: part of the list above
> CNc1ccccc1C(=O)OCC(=O)c1ccccc1Cl
  Mtb H37Rv: i
> COc1ccc(CCNC(=O)CN(CCc2ccccc2)S(C)(=O)=O)cc1OC
  Mtb H37Rv: i

Some of the entries so far, field by field.
CCc1ccc(N2CCN(S(=O)(=O)c3cc(C)c(OC)cc3C)CC2)cc1
  Mtb H37Rv: i

CNc1ccccc1C(=O)OCC(=O)c1ccccc1Cl
  Mtb H37Rv: i

COc1ccc(CCNC(=O)CN(CCc2ccccc2)S(C)(=O)=O)cc1OC
  Mtb H37Rv: i

COC(=O)Cc1c(C)c2cc(Cl)c(OC(=O)c3ccco3)cc2oc1=O
  Mtb H37Rv: i

Carrying on:
Molecule	Mtb H37Rv
CN(C)S(=O)(=O)c1ccc(NC(=O)c2ccc(-c3ccccc3)cc2)cc1	i
COc1ccc(NC(=O)CSc2n[nH]c(-c3ccc(Cl)cc3Cl)n2)cc1	i
Cc1ccccc1Cn1nc(C)c(NC(=O)C2c3ccccc3Oc3ccccc32)c1C	i
CCOc1cc(S(=O)(=O)n2nc(C)cc2C)ccc1Br	i
CCOc1ccccc1NC(=O)CN(C)S(=O)(=O)c1ccc2ccccc2c1	4%
CCOC(=O)C1CCN(C(=O)C2CCN(S(=O)(=O)c3ccccc3)CC2)CC1	i
COc1ccc(OC(=O)C(C)Oc2ccccc2F)cc1 (stereo not given)	i
CCCN1CCN(C(=O)NC23CC4CC(CC(C4)C2)C3)CC1	i
CCc1ccc(OCC(=O)NCc2ccc(F)cc2)c(Br)c1	15%
CCCC(=O)Nc1ccc(NC(=S)NC(=O)c2cc(Br)cc(C)c2OC)cc1	i
COc1ccc(C2C(C(=O)O)CC(=O)N2Cc2ccccc2)cc1 (stereo not given)	i
Fc1ccc(NC(=S)NC2C3CCCCC32)cc1 (stereo not given)	?
COc1ccc(S(=O)(=O)N2CCN(C(=S)NC3CCCCC3)CC2)cc1	i
CC(C)(C)N1C(=O)c2ccc(C(=O)NCc3ccco3)cc2C1=O	i
NC(=O)c1cc(Cc2ccccc2)sc1NC(=O)COc1ccccc1	0%
O=[N+]([O-])c1ccccc1-c1ccc(NC(=S)Nc2ccc(F)cc2F)cc1	i
C#Cc1cccc(NC(=O)Cc2ccc(Cl)cc2)c1	i
CCCCOc1ccc(C(=O)Nc2ccc(Br)c(C)n2)cc1	i
CSc1nc(NN2C(=O)c3ccccc3C2=O)c2c3c(sc2n1)COC(C)(C)C3	4%
COc1cc(C(=O)NC2(C(F)(F)F)C(=O)Nc3c2c(=O)n(C)c(=O)n3C)cc(OC)c1OC (stereo not given)	i
Cc1cc(Br)ccc1OCC(=O)NCCN(C)C	i
Cc1ccc(C(=O)N2CCN(c3ccc(NC(=O)c4cccc(Br)c4)cc3)CC2)cc1	19%
COc1cc(C(=O)Nc2cccc(NC(C)=O)c2)cc(OC)c1OC	i
CS(=O)(=O)N(CC(=O)Nc1ccc(C(F)(F)F)cc1)c1ccc(F)cc1	i
COc1ccc(NC(=S)N2CCNC(=O)C2CC(=O)Nc2ccc(C)cc2)cc1 (stereo not given)	i
O=C1OC2(c3ccc(F)cc3)C(OC(=O)C23CCCCC3)C12CCCCC2 (stereo not given)	i
Nc1nnc(SCc2ccc(F)cc2)s1	i
COc1cccc(NC(=O)CSc2nnc(C)s2)c1	i
O=C(NCc1ccco1)/C(=C\c1ccc2c(c1)OCO2)NC(=O)c1ccc(Br)o1	i
O=C(CSc1nnc(Cc2ccccc2)o1)Nc1cccc2ccccc12	i
COc1cc(SC)ccc1C(=O)Nc1nnc(COc2ccc(Cl)cc2)s1	i
CCOc1ccc(C(=O)Nc2ccc(N3CCN(C)CC3)cc2)cc1Cl	12%
COc1ccc([N+](=O)[O-])cc1NC(=O)CN(c1ccccc1)S(=O)(=O)c1ccc(Cl)cc1	i
CCOC(=O)N1CCN(C(=O)c2cc3nc(-c4cccc(OC)c4)cc(C(F)(F)F)n3n2)CC1	i
Cc1cc(C)c(C)c(S(=O)(=O)Nc2ccc(O)cc2)c1C	i
CCc1cccc(C)c1NC(=O)c1cc(-c2cccs2)nc2ccccc12	i
CCOc1ccc(N(CC(=O)NCc2ccccc2)S(=O)(=O)c2ccc(OC)c(OC)c2)cc1	i
CCC(=O)N1CCN(c2ccc(NC(=S)NC(=O)C(C)C)cc2)CC1	i
COc1ccc(C(=O)Nc2ccc(C)cc2NC(=O)c2ccc(OC)cc2)cc1	4%
Cc1ccc(OCCNC(=O)c2cccc(Cl)c2)cc1C	31%
COc1ccc(Cn2c(CO)nc3ccccc32)cc1OC	i
CNC(=S)Nc1ccc(OC(F)(F)F)cc1	i
CCCOc1ccc(C2C3=C(CC(C)(C)CC3=O)N(C)C3=C2C(=O)CC(C)(C)C3)cc1OCC	i
Cc1ccc(S(=O)(=O)N2CCCN(S(=O)(=O)c3ccc(C)c(C)c3C)CC2)c(C)c1C	2%
CCOC(=O)C1=C(C)NC(=O)NC1c1cc(I)c(OC(C)C)c(OC)c1 (stereo not given)	i
COc1ccc(NC(=O)N2CCc3ccccc32)cc1	1%
O=C(Nc1ccc2c(c1)OCO2)c1cccc(Cl)c1Cl	i
CC1CN(S(=O)(=O)c2ccc(F)cc2)C(C)CN1S(=O)(=O)c1ccc(F)cc1 (stereo not given)	i

Following part
Structure,Mtb H37Rv
O=C(NC1CCCC1)c1cc2n(n1)C(C(F)(F)F)CC(c1ccc(F)cc1)N2 (stereo not given),i
O=C(CCCN1C(=O)c2ccccc2C1=O)NCCC1=CCCCC1,i
CCC1SC(=NC(=O)C(Cc2ccccc2)N2C(=O)c3ccccc3C2=O)NC1=O (stereo not given),i
O=C(CC12CC3CC(CC(C3)C1)C2)N1CCN(c2ccc([N+](=O)[O-])c(N3CCCCC3)c2)CC1,i
CC1(C)NC(=O)N(CCOc2ccccc2)C1=O,i
COc1cc(C(=O)Nc2ccccc2C(=O)Nc2ccccn2)cc(OC)c1OC,i
COc1ccc(NC(=O)c2nnn(Cc3ccccc3)c2N)cc1,i
CSc1nnnn1-c1ccc(Cl)cc1,i
COc1ccc(C2CC(c3ccc4ccccc4c3O)=NN2C(=O)c2ccc(C)cc2)cc1OC (stereo not given),1%
CC(=O)Cc1ccccc1OC(=O)c1ccccc1,0%
CCOC(=O)c1cnc(Nc2nc3ccccc3s2)nc1-c1ccccc1,1%
CN(C)S(=O)(=O)N(CC(=O)Nc1cc(Cl)cc(Cl)c1)c1ccccc1,i
CC(C)c1ccc(CNC(=O)C2CC(=O)N(C3CCCCC3)C2)cc1 (stereo not given),i
COc1ccccc1C1CC(c2ccco2)=NN1S(C)(=O)=O (stereo not given),i
CC(=O)c1ccc(NC(=O)NNC(=O)c2ccc(Cl)s2)cc1,i
CCOC(=O)c1csc(N2CCc3ccccc32)n1,i
CCCSc1nc2c(c(=O)[nH]1)C(c1ccncc1)C1=C(CC(C)(C)CC1=O)N2 (stereo not given),i
O=C1/C(=C\c2cccs2)SC(=S)N1CC1CCCO1 (stereo not given),i
CCc1ccc2c(c1)C(O)(CC(=O)c1cccs1)C(=O)N2 (stereo not given),i
CCOCC(=O)N1CCCc2ccccc21,i
CCOC(=O)c1ccc(NC(=O)NNC(=S)Nc2ccc(F)cc2F)cc1,4%
Cc1ccc(-c2noc(CN3CCN(c4ccccn4)CC3)n2)cc1,13%
O=C(O)c1cccnc1SC1CC(=O)N(c2ccc(Cl)c(C(F)(F)F)c2)C1=O (stereo not given),i
CC(C)(C)c1cc(-c2nc3ccccc3[nH]2)c(O)c(-c2nc3ccccc3[nH]2)c1,4%
NC(=O)C1CCN(C(=O)CCc2ccc(S(=O)(=O)NC3CCCCC3)cc2)CC1,i
Cc1cc(C)cc(Oc2nc3c(c(=O)n(Cc4ccc(Br)cc4)c(=O)n3C)n2C)c1,i
C=CCn1c(COc2ccccc2C)nc2ccccc21,3%
COc1ccc(C(=O)CC2(O)C(=O)Nc3ccc(Br)cc32)cc1OC (stereo not given),2%
Cc1ccc(C)c(OCCN2CCNCC2)c1,i
O=C(NC1C2CC3CC(C2)CC1C3)c1c(F)c(F)c(F)c(F)c1F (stereo not given),1%
CCCC(=O)Nc1ccc(C(=O)NCC(C)C)cc1,i
CCOc1ccc(CC(=O)NNC(=S)Nc2ccc(F)cc2F)cc1OCC,i
CN(Cc1ccccc1)S(=O)(=O)c1ccc(NC(=O)C2CCCO2)cc1 (stereo not given),i
COc1cc(C2C(C(=O)c3cc4cccc(OC)c4o3)=C(O)C(=O)N2c2nc(C)c(C(C)=O)s2)cc(OC)c1OC (stereo not given),10%
CCC(CC)c1nnc(NC(=O)c2cc(-c3ccccc3)nc3ccccc23)s1,i
COc1ccccc1C1=NOC(Cn2c(NCc3ccco3)nc3c2c(=O)n(C)c(=O)n3C)C1 (stereo not given),i
CCOC(=O)c1c(C)oc2ccc(NS(=O)(=O)c3ccc(F)cc3C)cc12,1%
CCc1cc(I)ccc1NC(=O)c1sc2cc(Cl)ccc2c1Cl,i
CCOC(=O)c1sc(NC(=O)CSc2nc3c(c(-c4cccs4)c2C#N)CN(C)CC3)c(C#N)c1C,4%
CCOC(=O)c1ccc(NC(=O)CSc2nnc(COc3cc(C)ccc3C(C)C)n2CC)cc1,0%

Arranged by formula weight (rising): part of the list above.
Structure,Mtb H37Rv
CCOC(=O)c1c(C)oc2ccc(NS(=O)(=O)c3ccc(F)cc3C)cc12,1%
CCOC(=O)c1ccc(NC(=O)NNC(=S)Nc2ccc(F)cc2F)cc1,4%
CCOc1ccc(CC(=O)NNC(=S)Nc2ccc(F)cc2F)cc1OCC,i
NC(=O)C1CCN(C(=O)CCc2ccc(S(=O)(=O)NC3CCCCC3)cc2)CC1,i
CCc1cc(I)ccc1NC(=O)c1sc2cc(Cl)ccc2c1Cl,i

Going on with the list:
Structure,Mtb H37Rv
CCCc1cc(=O)oc2c(C)c3occ(-c4ccc(OC)cc4)c3cc12,i
O=C(CCC(=O)Nc1ccccc1Cl)NNC(=S)NCC1CCCO1 (stereo not given),i
COc1ccc(Oc2nc(N3CCOCC3)nc(-c3ccccc3)c2C#N)cc1,i
CCOC(=O)c1c(-c2ccc(OC)cc2)oc2ccc(OC(C)=O)cc12,16%
Fc1ccccc1CSC1=NCCN1,i
N/C(=N\O)c1ccc(NC(=O)c2ccc(Br)o2)cc1,i

Source: PubChem BioAssay
